# High-throughput results deposited in PubChem by several laboratories.
# eIF4H inh – human eIF4H binding inhibitors, primary screen, translation initiation inhibitor project, biochemical, uHTS, fluorescence polarization; Eukaryotic translation initiation factor 4H (Homo sapiens), Q15056; eIF4H fluorescence polarization binding assay; inhibition, % at 35 µM; 290,000 tested, 0.94% active; AID 2012, 2009;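 active means 50% or more with normal probe brightness, or confirmed in later tests; inconclusive means above 50% with abnormal brightness, or retests that disagree; inactive means below 50% or failed in later tests; about a fifth of its hits are not listed in these tables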;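 further: calls also rest on retests at 20 µM and on dose response follow-up; 0% = protein and probe with vehicle and 100% = probe without protein; strong numbers were not always called active; many hits fall short of the cut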
# Yeast UUG start – modulators of yeast start codon fidelity, primary screen, whole organism, S. cerevisiae, single point, plate reader | AID 602363, 2012 | 350,000 tested, 0.13% active | activity score, % at 18.7 µM | S. cerevisiae UUG-firefly luciferase reporter, luminescence/redox ratio;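 active means replicate mean at a twofold rise or more, about +100% in these data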;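 further: firefly luciferase made from a UUG start codon reports start codon fidelity; reporter light over untreated wells divided by growth signal over untreated wells; some hits fall short of that in this replicate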
# CSC inhib – cancer stem cell viability inhibitors, primary screen, luminescence; cancer stem cell-like cells viability; inhibition, % at 7.5 µM; 300,000 tested, 1.1% active; AID 2717, 2010;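 active means mean at 75% or more and at least half the replicates too; inconclusive means mean and replicates disagree; tested in HMLE shEcad cells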;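 further: 0% = median of negative and 100% = median of positive control wells; the first replicate is given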
# HIV Env fusion – inhibitors of HIV-1 Env-driven cell-cell fusion, primary screen, HeLa-JRFL effector, CEM21 target cells, luciferase | inhibition, % at 12.3 µM | 360,000 tested, 1.1% active | AID 651610, 2012;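 active means mean replicate inhibition score of at least 50 and every replicate individually at or above 50; inconclusive means only one of the two criteria met; inactive means mean below 50 and not all replicates reaching 50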;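 further: 0% = plate neutral controls and 100% = maraviroc near 300 nM; one replicate is shown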
# MT1-MMP act inh – blockers of MT1-MMP proenzyme processing, primary screen, HT1080 RFP-PRO-GFP cells, GFP/RFP fluorescence; GFP/RFP ratio fluorescence, overnight; percent of plate control window, DMSO zero; 360,000 tested, 0.061% active; Matrix metalloproteinase-14 (Homo sapiens), P50281; GFP/RFP ratio change, % at 20 µM;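 active means GFP/RFP ratio change of at least 30% with cell ATP level not reduced by more than half and red fluorescence within 50% of control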; further: strong numbers were not always called active
#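 system = RFP-PRO-GFP reporter HT1080 cells | dosing = 20 µM single dose, 1% DMSO | timing = overnight cell settling, then overnight compound exposure, 37 °C, 5% CO2 | read-out basis = GFP/RFP fluorescence ratio | controls = DMSO and RFP-L50D-GFP cell wells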
# PABP FP inh – PABP poly(A) RNA binding inhibitors, primary screen, biochemical, fluorescence polarization, uHTS. Polyadenylate-binding protein 1 (Homo sapiens), P11940. inhibition, % at 35 µM. 290,000 tested, 1% active;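 active means 50% or more with normal probe brightness, or confirmed in later tests; inconclusive means above 50% with abnormal brightness, or retests that disagree; inactive means below 50% or failed in later tests; about a fifth of its hits are not listed in these tables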;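 further: calls also rest on retests at 20 µM and on dose response follow-up; controls were probe without protein and protein plus probe with vehicle; some compounds called inactive have numbers as strong as hits; many hits fall short of the cut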
# Rce1 inh – yeast Rce1p protease inhibitors, primary screen, biochemical, fluorescence, cell-free homogeneous | yeast membranes, quenched prenylated peptide cleavage fluorescence | CAAX prenyl protease 2 (Saccharomyces cerevisiae (strain ATCC 204508 / S288c)), Q03530 | 290,000 tested, 0.27% active | AID 2563, 2010 | calls only;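 active means fall in fluorescence gain of 50% or more versus controls, with final raw signal at or below 3038400; inconclusive means same 50% fall but final raw signal above 3038400; inactive means fall in fluorescence gain under 50%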;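 further: plate controls were neutral control wells for no effect and wells lacking membranes for full effect; tested at 10 µM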
# Target sequence (Q03530 whole entry, looked up): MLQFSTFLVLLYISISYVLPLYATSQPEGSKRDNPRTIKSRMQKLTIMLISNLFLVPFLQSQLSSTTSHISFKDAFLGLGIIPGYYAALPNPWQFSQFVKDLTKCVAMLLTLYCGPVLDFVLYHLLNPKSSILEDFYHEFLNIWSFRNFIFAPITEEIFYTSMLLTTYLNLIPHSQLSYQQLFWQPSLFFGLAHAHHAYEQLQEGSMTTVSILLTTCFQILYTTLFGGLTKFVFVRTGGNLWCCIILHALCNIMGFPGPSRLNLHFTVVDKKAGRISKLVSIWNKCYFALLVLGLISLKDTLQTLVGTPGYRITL
# MT1-MMP act inh RFP – also measured in MT1-MMP act inh; calls as there; RFP signal change, %; measured here: RFP expression control read;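 0 = vehicle wells; hits needed this value within 50% of zero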
# The depositor's hits bear a star; i = inactive; ? = inconclusive; . = not tested or not shown. This is a subset, so the mix of outcomes need not match the whole.
# Sequence of screens – eIF4H inh	Yeast UUG start	CSC inhib	HIV Env fusion	MT1-MMP act inh	MT1-MMP act inh RFP	PABP FP inh	Rce1 inh
CN1C(C(=O)c2ccccc2)=C(N)c2ccccc2S1(=O)=O
 : 0	-15	-8	8	4	2	4	i
CC1(C)CC(=NOC(=O)c2ccccc2)CC(C)(C)N1
 : 6	-5	-5	.	0	-2	-2	i
CCOc1ccc(-n2c(N)c(C(=O)NCc3ccco3)c3nc4ccccc4nc32)cc1
 : 11	-9	5	.	-15	-4	8	i
CCOc1cc(/C=C/c2ccc3cccc([N+](=O)[O-])c3n2)ccc1OCC(=O)N(C)C
 : -7	.	12	15	-3	-8	0	i
O=C(CNc1ccc(Br)cc1)Nc1ccc(S(=O)(=O)N2CCCCC2)cc1
 : .	-16	.	4	2	1	.	.
Cc1nn(Cc2ccccc2Cl)c2sc(C(=O)OC3CCCC3=O)cc12 (stereo unspecified)
 : -7	-5	26	-1	-1	-3	-11	i
Cc1ccc(C(C(=O)NC2CCCCC2)N(Cc2ccco2)C(=O)C2COc3ccccc3O2)o1 (stereo unspecified)
 : 15	-7	0	-17	-15	-9	-1	i
O=C(Cn1nc(Cc2cccnc2)c2ccccc2c1=O)NCC1COc2ccccc2O1 (stereo unspecified)
 : 4	-24	.	-20	1	0	10	i
O=C(O)c1[nH]c2ccccc2c1C(c1cc(Br)ccc1O)c1c(C(=O)O)[nH]c2ccccc12
 : 27	-5	10	18	-4	-1	22	.
OCC1(CCc2ccccc2)CCN(Cc2cc(F)ccc2-n2cccn2)CC1
 : 0	-6	0	-33	1	4	3	i
CC(C)(C)Cc1nnc(NC(=O)c2ccc([N+](=O)[O-])cc2)s1
 : 3	-16	-7	.	4	0	9	i
Cc1ccc(CNC(=O)CCC(=O)n2ncc3cc(C)ccc32)cc1
 : 2	-4	-4	10	2	3	7	i
O=C(CCCCCN1C(=O)c2ccccc2C1=O)Nc1nccs1
 : -1	-12	5	6	0	-5	-4	i
COc1ccccc1N1CCN(C(CNS(=O)(=O)c2ccccc2)c2cccnc2)CC1 (stereo unspecified)
 : 6	-9	8	.	-4	3	7	i
CC(=O)Nc1ccc(S(=O)(=O)Oc2cccc(/C=C3\SC(N)=NC3=O)c2)cc1
 : -8	.	-7	1	0	-6	0	i
COCCNC(=O)CN1C(=O)CSc2ccc(S(=O)(=O)N3CCOCC3)cc21
 : -10	-29	19	-10	-5	-2	-9	i
Cc1c(C(=O)NC2CCCc3ccccc32)oc2ccc(S(=O)(=O)N3CCOCC3)cc12 (stereo unspecified)
 : -6	-20	54	-66	4	0	-4	i
Clc1ccc(OCCCN2CCc3ccccc3C2)c(Br)c1
 : -12	10	46	?	-4	-2	9	i
CCSc1nnc(NC(=O)c2cc3c(s2)CCCC3)s1
 : -4	4	2	-78	8	1	-8	i
O=C(Nc1cc(Oc2ccccc2)cc([N+](=O)[O-])c1)C12CC3CC(C1)CC(n1cnc(Cl)n1)(C3)C2
 : -14	-20	21	-45	-7	-15	-5	i
Fc1ccc(COc2ccc(Cl)cc2/C=N/Nc2nc(N3CCCC3)nc(N3CCCC3)n2)cc1
 : 9	1	3	-79	13	4	3	i
CCNc1ccc(C(=O)OCC(=O)c2cc(C)n(Cc3ccc4c(c3)OCO4)c2C)cc1[N+](=O)[O-]
 : 12	.	4	23	7	-1	34	i
Cc1ccc(CSCc2ccc(C(=O)NC3CC3)o2)cc1
 : .	7	-4	1	3	-13	.	i
O=C(NCc1ccc(Cl)cc1)c1ccc(-c2ccc(F)c(F)c2)c2ccoc12
 : .	12	.	9	2	-6	.	.
COC(=O)[C@H](Cc1ccccc1)NC(=O)NCc1ccccc1OC
 : -3	8	-8	-64	3	4	0	.
Nc1nonc1-n1nnc(C(=O)N/N=C/c2ccc(F)cc2)c1-c1cccs1
 : -5	-8	-4	0	-7	0	0	i
NC(=O)COC(=O)c1ccc2noc(-c3ccccc3)c2c1
 : 9	-12	-15	-12	1	2	14	i
CCOC(=O)Cn1cc(/C=C(\C#N)C(=O)N2CCOCC2)c2ccccc21
 : 5	.	-8	-8	2	0	4	i
Cn1c2ccsc2c2ncn(Cc3ccccc3F)c(=O)c21
 : .	-26	19	-20	1	-1	.	.
COc1cc(/C=N/n2c(C)n[nH]c2=S)ccc1OCc1ccc(F)cc1
 : 2	-20	9	-8	4	0	20	i
CC(=O)N1CCN(C(=O)c2ccc(OC3CCN(CCc4ccccc4)CC3)cc2)CC1
 : 8	-3	0	-13	0	0	16	i
CC1(O)c2ccccc2C(=O)N1CCc1ccccc1F (stereo unspecified)
 : -3	.	-6	.	-1	2	-1	i
CC(C)(C)OC(=O)NCCc1nnc(SCC(=O)Nc2cccc(Cl)c2)o1
 : 0	-14	-7	-158	7	10	-4	i
CCOC(=O)/C(=C/Nc1ccccc1)[N+](=O)[O-]
 : -7	-9	-10	.	2	4	-4	i
Cc1ccc(NC(=O)CN2C(=O)S/C(=C\c3ccccn3)C2=O)cc1
 : -2	.	-6	-1	2	5	1	i
COc1ccccc1N1CCN(C(=O)c2ccc3[nH]c(C)c(C)c3c2)CC1
 : -4	2	56	-394	0	-7	-4	i
CN(C)/C(=N\S(=O)(=O)c1ccccc1)c1ccc(Cl)cc1
 : 4	2	-13	0	-5	0	-7	i
C=CCN(CC=C)C(=O)c1cccc(S(=O)(=O)N2c3ccccc3CC2C)c1 (stereo unspecified)
 : -1	-1	8	20	-4	-12	0	i
CCC(C(=O)NC1CC1)n1nc(C)c2c(C)n(-c3ccccc3)nc2c1=O (stereo unspecified)
 : -8	-17	-3	-3	-2	1	-2	i
Cn1c(C(=O)N2CCCC(C(=O)NCc3cccs3)C2)cc2sccc21 (stereo unspecified)
 : -15	.	-9	.	1	0	-5	i
CCCc1cc(=O)[nH]c(SCC(=O)NCc2ccc3c(c2)OCO3)n1
 : -1	-19	-14	1	4	5	8	i
COc1ccccc1OCC(=O)Nc1ccc(N2CCCCC2)cc1
 : -9	.	-2	-7	1	2	8	i
Cc1[nH]ccc2cc3nc4ccccc4c3cc12
 : .	-28	.	-10	3	5	.	.
O=C(CC1C(=O)NCCN1Cc1cccc(F)c1)NC1CCCCCC1 (stereo unspecified)
 : 9	-2	-6	5	-1	5	14	i
CCN(CCCNC(=O)CCCN1C(=O)COc2ccc(C)cc21)c1cccc(C)c1
 : -11	-19	.	25	-2	-6	-10	i
OCCN(CCO)c1nc(-c2ccccc2)nc2c1oc1ccccc12
 : -6	.	2	19	2	-1	20	i
O=C(Nc1ccc(S(=O)(=O)N2CCc3ccccc32)cc1)C(F)(F)F
 : -2	5	-1	9	2	1	-4	i
S=c1nc(-c2csc3c2CCCC3)[nH][nH]1
 : 9	.	.	-23	1	-3	3	i
O=S(=O)(Cc1ccccc1)Nc1ccc(Br)cn1
 : -9	.	-11	3	4	6	0	i
CC(C)C[C@@H](CN)NC(=O)c1nc[nH]c1C(=O)N[C@@H](C)C(=O)CNC[C@H](CC(C)C)NC(=O)c1nc[nH]c1C(=O)N[C@@H](CC(=O)O)C(=O)O
 : .	6	.	32	1	6	.	.
CN(C)S(=O)(=O)c1ccc(N2CCCC2)c(C(=O)Nc2ccccc2N2CCOCC2)c1
 : -3	-31	.	-88	4	4	13	.
N#Cc1cccc(NC(=O)CNc2cccc(S(=O)(=O)N3CCCCC3)c2)c1
 : .	-13	-22	28	-11	-24	.	i
CCn1cc(C(=O)O)c(=O)c2cc3c(cc21)OCO3
 : 0	.	-4	.	.	.	2	i
CC(=O)c1cccc(NC(=O)CN2C(=S)NC(C)(C)CC2C)c1 (stereo unspecified)
 : -9	.	-12	-5	6	6	-1	i
Cc1ccccc1NC(=O)COC(=O)c1ccc(C)c(S(=O)(=O)N2CCCCC2)c1
 : .	-1	.	-10	0	-6	.	.
COc1ccccc1C1CC(c2ccccc2)Nc2ncnn21 (stereo unspecified)
 : -13	-10	3	.	1	-2	-8	i
CCOc1ccc(CCNC(=O)CCS(=O)(=O)c2ccc(Br)cc2)cc1OCC
 : 2	-20	-17	26	3	2	10	i
O=C(NCc1ccco1)C1CCCN1C(=O)NCc1ccccc1 (stereo unspecified)
 : 6	-12	-17	-24	1	3	9	i
CCn1c(=O)n(CC)c2cc(N3CCCC3)c(NC(=O)c3cccc(C)c3)cc21
 : -14	-5	11	3	15	12	4	i
Cc1c(C(=O)N2CCN(Cc3ccc4c(c3)OCO4)CC2)sc2ncnc(N3CCN(c4ccccc4F)CC3)c12
 : -5	-18	-4	32	-11	-27	4	i

# Remaining list, next part.
# Sequence of screens – eIF4H inh	Yeast UUG start	CSC inhib	HIV Env fusion	MT1-MMP act inh	MT1-MMP act inh RFP	PABP FP inh	Rce1 inh
O=C1OCCC1=COCCOC=C1CCOC1=O
 : .	-15	.	-8	3	6	.	.
COc1ccc(C(C)=O)cc1CSc1nnc(-c2ccccc2O)n1-c1ccccc1
 : -1	.	-5	.	4	-1	-9	i
Cc1cc2c(C)nc3ccccc3c2o1
 : -4	-7	-8	.	-1	3	-2	i
CCN1CCN(c2oc(/C=C/c3ccccc3)nc2C#N)CC1
 : 7	.	-4	8	5	-2	-1	i
COC(=O)[C@@H]1C[C@@]2(O)[C@H](O)[C@H](O)[C@H](O)C[C@H]2N1Cc1cc(F)ccc1F
 : -1	-7	-9	-24	8	14	-4	i
Cc1cc(C)c(NC(=S)N2CCCC2C(=O)O)c(C)c1 (stereo unspecified)
 : 6	.	-1	-47	-2	2	-2	i
Cc1nnc(SCC(=O)Nc2ccc(O)cc2)c2ccccc12
 : 12	-6	-6	-6	4	2	4	i
CNC(=S)NNC(=O)c1sccc1OCc1cccc(C(F)(F)F)c1
 : -7	.	0	-43	4	1	8	i
C#CCOCCOCCOCCNc1nc(N2CCN(C(=O)[C@H]([C@@H](C)CC)n3cc([C@@H](N)CO)nn3)CC2)nc(N2CCN(C(=O)[C@H]([C@@H](C)CC)n3cc([C@@H](N)CO)nn3)CC2)n1
 : -1	.	.	.	.	.	4	i
Fc1cc2[nH]c(=S)[nH]c2cc1Cl
 : -8	.	-4	57*	4	3	2	i
CCn1c(SCC(=O)c2ccccc2)nc2ccccc2c1=O
 : -11	1	-4	6	4	3	-4	i
COc1ccccc1C(=O)NNC(=O)C1CCCO1 (stereo unspecified)
 : -12	.	-11	-25	-2	3	1	i
Cc1ccc([C@@H]2[C@@H]3C(=O)N(c4ccccc4)C(=O)[C@@H]3[C@]3(C)C(=O)N(Cc4ccc(-c5ccccc5)cc4)CC(=O)N23)o1
 : -3	6	15	-13	5	1	9	i
O=C(COc1ccc(Br)cc1)NN1C(=O)c2ccccc2C1=O
 : .	-15	-1	17	4	5	.	i
CCn1c(SCC(=O)Nc2ccc(N(C)C)cc2)nnc1-c1cccc(C)c1
 : -1	-3	-14	.	1	4	4	i
C#CCN(C[C@H]1[C@H](OC(=O)NC2CCCC2)[C@H](OC(=O)NC2CCCC2)C[C@@H](C(=O)OC)[C@H]1C(=O)OC)S(=O)(=O)c1ccc(C)cc1
 : .	-9	.	-14	-6	-10	.	.
Cc1cccc(C)c1OCc1nnc(SCC(=O)Nc2nccs2)o1
 : 10	-29	8	-6	2	3	8	i
